Screening data: PubChem, several laboratories
HNF4A DNA FP – change in binding of human HNF4 alpha to DNA. P41235. HNF4a-FITC DNA binding, fluorescence polarization, 1 h. activity change, % at 10 µM. 0.3% of 360,000 active. AID 1224865; in the data active = activity change above about 30%, passing the limit was not always enough;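 note: controls were the assay level and a saturating level of protein; the project sought stronger binding though the title names inhibitors; some compounds called inactive have numbers as strong as hits; positive values seem to mean higher polarization but the record does not say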
Target sequence (P41235 whole entry, looked up): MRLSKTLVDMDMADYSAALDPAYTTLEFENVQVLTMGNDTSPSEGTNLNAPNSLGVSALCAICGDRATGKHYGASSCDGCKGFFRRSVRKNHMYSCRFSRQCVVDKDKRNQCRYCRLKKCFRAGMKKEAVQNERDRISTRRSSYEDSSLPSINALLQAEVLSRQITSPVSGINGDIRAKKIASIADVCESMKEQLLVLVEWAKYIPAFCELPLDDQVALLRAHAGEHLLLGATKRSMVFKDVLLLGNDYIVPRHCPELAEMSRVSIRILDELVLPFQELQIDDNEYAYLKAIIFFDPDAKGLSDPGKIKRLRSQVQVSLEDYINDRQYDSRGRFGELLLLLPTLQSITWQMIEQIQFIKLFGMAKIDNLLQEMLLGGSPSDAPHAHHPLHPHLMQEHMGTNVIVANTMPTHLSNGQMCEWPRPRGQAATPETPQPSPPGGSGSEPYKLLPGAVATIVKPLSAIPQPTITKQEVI
LANA-H2A inh – blocks KSHV LANA binding to histone H2A/H2B; 0.6% of 320,000 active; Q9QR71; inhibition, % (test concentration not listed); cell-free LANA-H2A/H2B peptide, fluorescence polarization; AID 2629; in the data active = inhibition mostly above about 10%, no sharp cut-off; inactive = mostly below about 6.7%;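 note: stock transfer was 7.5 nL into about 10 µL; 0% = median of vehicle wells and 100% = median of positive control wells; one replicate is shown; the record names a cut of 25% in any replicate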
ALR inh – human ALR oxidase inhibition via reduced H2O2; P55789; purified ALR, DTT oxidation, H2O2 HRP-luminol luminescence; inhibition, % (test concentration not listed); 3.8% of 290,000 active; AID 485317;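 active = mean and each replicate at 75% or more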;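 note: stock transfer was 7.5 nL into about 7.5 µL; 0% = neutral wells and 100% = wells with inactivated enzyme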
Target sequence (P55789 whole entry, looked up): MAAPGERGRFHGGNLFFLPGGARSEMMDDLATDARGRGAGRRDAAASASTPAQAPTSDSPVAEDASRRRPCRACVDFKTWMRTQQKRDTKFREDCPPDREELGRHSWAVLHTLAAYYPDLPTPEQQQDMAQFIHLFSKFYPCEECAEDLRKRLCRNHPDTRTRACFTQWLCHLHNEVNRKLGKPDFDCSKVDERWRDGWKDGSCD
B2AR ag – activates human beta-2 adrenergic receptor causing internalization | 0.43% of 340,000 active | Am2.2-beta2AR cells, FAP receptor internalization, flow cytometry; reference of the scale not given here | P07550 | AID 504454 | response, % (no concentration beside the values);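 active = response above a set limit, near 3 SD of response in nonfluorescent compounds, cut at about 42% in these data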;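 note: stock transfer was 100 nL into about 11 µL; a reference agonist was the positive control; negative values mostly stem from fluorescent compounds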
Ecoli growth – inhibitors of Escherichia coli growth; OD600, 23 h; active compounds read low; OD600 absorbance (no concentration beside the values); 0.21% of 330,000 active;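 active = OD600 absorbance below the run mean of sample wells minus 3.6 SD, in any replicate, cut at about 0.56 in these data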;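 note: stock transfer was 300 nL into about 60 µL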
UCH37 inh – human UCH37 deubiquitinating enzyme inhibition; Q9Y5K5; 0.33% of 330,000 active; AID 588478; purified proteasome/UCH37, Ub-AMC cleavage fluorescence; inhibition, % (concentration not given with the values);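 active = mean of two replicates above 20%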;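 note: 0% = compound-free wells with enzyme and 100% = wells lacking proteasome; stock transfer was 100 nL into about 20 µL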
Target sequence (Q9Y5K5 whole entry, looked up): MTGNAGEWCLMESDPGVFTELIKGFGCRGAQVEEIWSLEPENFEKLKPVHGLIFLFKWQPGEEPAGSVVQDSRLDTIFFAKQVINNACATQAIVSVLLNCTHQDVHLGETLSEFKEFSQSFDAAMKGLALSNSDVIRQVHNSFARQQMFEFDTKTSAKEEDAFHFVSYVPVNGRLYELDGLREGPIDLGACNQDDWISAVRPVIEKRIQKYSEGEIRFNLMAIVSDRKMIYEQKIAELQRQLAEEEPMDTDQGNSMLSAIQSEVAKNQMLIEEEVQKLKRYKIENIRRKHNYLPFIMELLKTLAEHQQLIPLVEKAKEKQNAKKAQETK
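Material: human UCH37 enzyme supplied as purified proteasome complex / Amount: 0.15 nM proteasome as dispensed / Buffer or medium: pH 7.4 Tris-HCl (50 mM) with ovalbumin, ATP-MgCl2, DTT / Times: preincubation 30 min, reaction 25 min, room temperature / Technique: AMC fluorescence from Ub-AMC cleavage, excitation 355 nm, emission 460 nm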
FGF22 binding – binders of recombinant human FGF22 by thermal shift; Q9HCT0; SYPRO orange fluorescence; percent of sucrose octasulfate shift, DMSO zero; calls only at 9.99 µM; 1.5% of 340,000 active; AID 651658;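 active = melting point raised past a set limit in the mean and every replicate; three in four hits are not shown here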
* hit, by the source's call; i = inactive; / = not tested or not shown. A portion of the library; rates above refer to the full screens.

Compound	HNF4A DNA FP	LANA-H2A inh	ALR inh	B2AR ag	Ecoli growth	UCH37 inh	FGF22 binding
COc1ccc(-c2cc(CNS(=O)(=O)c3cc(OC)ccc3OC)on2)cc1	1.6	-4.6	-3.4	3.1	0.715	-0.3	i
OCCOc1ccc(C2=NCCO2)cc1	1.7	6.1	2.0	1.3	0.724	0.7	i
Cc1c(C(=O)OCc2ccccc2)[nH]c2c1C(=O)CC(c1ccco1)C2 (stereo unspecified)	-7.6	-1.2	/	11.7	0.682	0.5	/
Cc1ccc(NN=C2c3ccccc3-c3ccccc32)cc1	-0.5	-0.8	89.0*	4.2	0.75	8.1	/
Cc1nn(Cc2cccc(C(=O)NC3CCCCC3)c2)c(C)c1Cl	1.3	-1.8	-0.2	-0.9	0.657	5.1	/
Cc1ccc([N+](=O)[O-])c(-c2n[nH]c(=S)n2-c2cccc(Cl)c2)c1	0.1	-2.5	44.5	3.3	0.664	2.8	i
O=C(COc1ccc2ccc(=O)oc2c1)N1CCc2ccccc21	1.2	0.7	-17.3	-4.3	0.642	-42.9	i
CCc1ccc(N2CC(C(=O)Nc3cccc(C(=O)NC4CC4)c3)CC2=O)cc1 (stereo unspecified)	-4.4	-1.6	2.6	-10.2	0.678	2.3	i
Cc1cc(C)cc(NS(=O)(=O)c2c(C(=O)N3CCCCCC3)c(C)n(C)c2C)c1	6.4	-3.7	-13.0	-2.3	0.65	3.4	i
CCn1cc(/C=N/NS(=O)(=O)c2ccc(C)cc2)c(C)n1	-0.4	-1.7	32.8	4.5	/	/	/

Single records (already shown). Screens in order: HNF4A DNA FP	LANA-H2A inh	ALR inh	B2AR ag	Ecoli growth	UCH37 inh	FGF22 binding
Listed for Cc1nn(Cc2cccc(C(=O)NC3CCCCC3)c2)c(C)c1Cl : 1.3	-1.8	-0.2	-0.9	0.657	5.1	/
Listed for Cc1cc(C)cc(NS(=O)(=O)c2c(C(=O)N3CCCCCC3)c(C)n(C)c2C)c1 : 6.4	-3.7	-13.0	-2.3	0.65	3.4	i
Listed for Cc1ccc([N+](=O)[O-])c(-c2n[nH]c(=S)n2-c2cccc(Cl)c2)c1 : 0.1	-2.5	44.5	3.3	0.664	2.8	i
Listed for COc1ccc(-c2cc(CNS(=O)(=O)c3cc(OC)ccc3OC)on2)cc1 : 1.6	-4.6	-3.4	3.1	0.715	-0.3	i

Following part.
Compound	HNF4A DNA FP	LANA-H2A inh	ALR inh	B2AR ag	Ecoli growth	UCH37 inh	FGF22 binding
Cc1ccc(S(=O)(=O)NC(C)C(=O)N2CCOCCOCCOCC2)cc1 (stereo unspecified)	-1.0	1.6	/	4.7	0.687	4.8	i
CCOC(=O)c1cnc2c(ccc3ccccc32)c1NCCN(C)C	-0.8	1.2	-30.9	5.8	0.645	-27.3	i
CCOC(=O)C(=CNc1cc(C)ccc1C)C(=O)OCC	4.2	-1.8	0.8	-6.0	0.664	4.0	/
O=C(CN1C(=O)NC2(CCCC2)C1=O)NCCc1ccc(Cl)cc1Cl	-3.3	-3.8	-2.4	-4.7	0.665	0.8	i
Cc1nnc(SCC(=O)NCCC2=CCCCC2)[nH]c1=O	0.9	-1.9	-1.1	-1.0	0.677	1.1	i
O=C(CNC(=O)c1ccncc1)N/N=C/c1cc(Br)ccc1OCc1ccccc1	-1.5	-1.0	-2.7	-7.0	/	/	i
Cc1ccc(N(C(=O)c2snc(C(N)=O)c2N)C(C(=O)NC2CCCC2)c2ccco2)cc1 (stereo unspecified)	0.1	/	/	11.7	0.632	-29.6	i
CCOC(=O)c1c(NC(=O)CC)sc(C(=O)NC2CCCC2)c1C	2.1	-3.7	-0.6	-11.5	0.671	3.8	i
CCOC(=O)C1=C(CS(=O)(=O)c2ccccc2)NC(=O)NC1c1ccc(OC)c(OC)c1 (stereo unspecified)	0.4	-1.6	-1.2	-3.4	0.651	1.1	i
COc1ccc(CC(=O)NCc2nnc(SCCOc3ccccc3)n2C)cc1	0.4	-2.2	-12.9	-2.5	0.635	-2.2	/
C=C(C)Cn1c(SCC(=O)N/N=C/c2ccccc2)nc2ccccc2c1=O	1.0	4.8	-1.8	-8.9	/	/	i
CC(=O)Nc1ccc(NC(=O)c2cc(S(=O)(=O)N3CCCCC3)ccc2C)cc1	-0.6	/	/	-3.0	0.689	2.2	i
Cn1c(=S)[nH]c2scc(-c3cccs3)c2c1=O	3.9	/	/	1.9	0.676	5.0	i
CN(Cc1cccs1)CC(O)COCc1ccco1 (stereo unspecified)	0.7	0.1	-3.1	4.7	0.649	1.3	/
Cc1cc(=O)oc2cc(OCC(=O)NCCCN3CCOCC3)ccc12	-2.0	-2.4	0.6	-2.1	0.725	-8.4	/
Cc1cc(C)cc(N2CC(C(=O)Nc3cc(C)on3)CC2=O)c1 (stereo unspecified)	-0.4	-8.6	-2.4	-7.1	0.659	-1.5	i
CC(OC(=O)c1cc(S(=O)(=O)N2CCOCC2)ccc1F)C(=O)NC1CCCC1 (stereo unspecified)	0.4	24.8*	-5.1	0.2	0.686	1.4	i
C=CCOc1cccc(C2/C(=C(\O)c3ccc4c(c3)OCCO4)C(=O)C(=O)N2CCN2CCOCC2)c1 (stereo unspecified)	1.5	-2.3	1.4	9.7	0.693	12.9	i
Cc1ccc(C(=O)Nc2ccccc2-c2ccccc2)cc1S(=O)(=O)Nc1ccccc1	-0.7	0.6	-2.1	1.6	0.691	-55.9	i
COc1ccc(S(=O)(=O)N2CCOCC2)cc1NC(=O)CSc1n[nH]c(=O)n1C1CC1	1.0	0.2	-10.0	2.7	0.705	6.6	i
CCCC(C)NC(=O)CSc1nnc2ccccn12 (stereo unspecified)	-3.9	-1.2	-4.9	1.0	0.674	-2.2	i
O=C(NCCOCCOCCNC(=O)c1cccnc1)c1cccnc1	1.4	3.4	-1.0	2.4	0.731	6.7	/
N#Cc1cccc(NC(=O)Cn2c3[n+](c4ccc(C(F)(F)F)cc42)CCCCC3)c1	4.2	1.7	-13.3	-12.2	0.647	1.8	i
CCN(CCCNC(=O)CN(C)S(=O)(=O)c1cccc2nsnc12)c1cccc(C)c1	-2.4	0.3	98.7*	4.7	0.697	0.7	/
Cc1ccc(-n2c(SCC(=O)N3CCCCC3)nc(O)c(Cc3ccccc3)c2=O)cc1	1.6	1.5	11.9	-9.1	0.733	5.9	i
S=c1nc(C23CC4CC(CC(C4)C2)C3)[nH][nH]1	0.4	1.7	7.2	-3.7	0.674	1.8	i
C=CSc1sc(Cl)c(N2CCOCC2)c1[N+](=O)[O-]	-6.3	-6.5	-3.7	-207.0	0.664	5.7	i
N=C(N)Cc1ccccc1Sc1ccccc1	-4.7	11.4	-5.7	5.7	0.678	3.2	/
COc1ccc(NC(=O)COC(=O)CCOc2ccccc2C)cc1Cl	0.7	-1.3	98.0*	5.4	0.625	1.4	i
Cc1cc(/C=N/N2CCN(C)CC2)c(C)n1-c1ccc(Cl)cc1	3.4	1.1	32.1	-6.4	/	/	i
COc1cc2c(cc1OC)[C@@H](NC(=O)CCc1ccccc1)[C@H](O)C2	-3.1	/	/	-4.7	0.674	1.2	i
CCC(CO)Oc1cc(NC(=O)c2cccc([N+](=O)[O-])c2)c2ncn(C(C)C)c2c1 (stereo unspecified)	1.0	4.7	-15.1	-1.0	0.685	5.1	i
O=C(Nc1cc(C(F)(F)F)ccc1Cl)C(NCc1ccccc1)c1ccccc1 (stereo unspecified)	-0.8	-7.2	-1.1	-0.1	0.704	1.5	/
COC(=O)c1ccc(CN2CCCC(CNC(=O)Cc3ccc(OC)cc3)C2)cc1 (stereo unspecified)	2.5	-0.5	/	1.7	0.679	2.2	i
C[C@H](CO)N1C[C@H](C)[C@@H](CN(C)S(=O)(=O)c2cccs2)Oc2c(NC(=O)C3CCCCC3)cccc2C1=O	-0.9	7.1	3.1	-6.8	/	0.8	i
C#CCOCCOCCOCCNc1nc(N2CCN(C(=O)[C@H](CCCN=C(N)N)n3cc(C(N)[C@@H](C)CC)nn3)CC2)nc(N2CCN(C(=O)[C@H](CC(N)=O)n3cc([C@@H](N)C(C)C)nn3)CC2)n1 (stereo partly specified)	2.3	-0.3	0.0	2.1	/	-0.3	i
O=C(O)CC(Cc1ccccc1)C(=O)Nc1ccc([N+](=O)[O-])cc1 (stereo unspecified)	1.2	-3.5	/	2.8	0.656	6.6	i
Cc1nc(N)sc1-c1nnc(SCC(=O)Nc2nccs2)n1C	1.6	-10.6	/	-3.1	0.68	0.3	/
O=C(CN1CCOCC1)N1CCCc2ccccc21	2.8	-3.0	-1.1	0.4	0.683	1.9	i
Cc1ccc(CCC(=O)Nc2ccc(C)c(C)c2)o1	4.3	-0.3	37.8	3.4	0.689	4.9	i
O=C(O)CCC(=O)Nc1ccc(OCC2CCCO2)cc1 (stereo unspecified)	3.7	-3.8	-17.9	0.2	0.635	-0.4	i
O=C(Nc1ccccc1C(=O)N1CCCC1)c1ncoc1-c1cccc(Cl)c1	-1.1	2.3	/	-0.3	0.627	2.7	i
O=C(CSc1nc(=O)n(CCCN2CCOCC2)c2c1CCCC2)Nc1ccc(F)cc1	-4.3	-1.9	27.8	-2.7	0.609	4.4	i
CCOc1ccccc1CNc1nc2ccccc2n1C	0.8	2.3	-4.2	5.9	0.643	1.4	/
O=C(C1CC(=O)N(c2ccccc2)C1)N1CCCCCC1 (stereo unspecified)	4.5	3.5	-1.3	0.2	0.708	-0.4	i
N/C(=N\OC(=O)Cc1cccc2ccccc12)c1ccccn1	1.6	-1.6	0.3	-3.5	0.709	3.3	/
Nc1nnc(SCC(=O)Nc2ccc(Cl)c(C(=O)O)c2)s1	6.1	-1.9	2.9	-0.1	0.633	0.9	i
Cc1ccc(-c2nn(-c3cccc(F)c3)cc2CNCc2cccnc2)o1	22.5	2.5	-15.3	-12.6	0.682	-7.5	i
Cc1oc(-c2ccccc2Cl)nc1CN1CCCC1c1ccc(F)cc1 (stereo unspecified)	7.4	-10.1	-23.0	-1.3	0.675	-5.1	i
O=C1/C(=C\c2ccco2)SC(=S)N1Cc1ccccc1	6.2	-3.7	0.5	6.0	0.744	3.1	/

Additional results follow.
Compound	HNF4A DNA FP	LANA-H2A inh	ALR inh	B2AR ag	Ecoli growth	UCH37 inh	FGF22 binding
Cc1nnc(NC(=O)CSc2nc(C(C)C)nc3sc(C)c(C)c23)s1	-2.7	/	/	-10.2	0.692	-0.2	/
CCOc1ccc(N(C(C)C(=O)N/N=C(\C)C(C)(C)C)S(C)(=O)=O)cc1 (stereo unspecified)	-2.2	4.3	-4.8	0.0	/	/	/
C=CCn1c2ccccc2c2nnc(SCC(=O)OCN3C(=O)c4ccccc4C3=O)nc21	-1.2	1.9	0.3	13.1	0.724	4.4	/
O=C(Nc1ccc(Br)cc1)c1csc(-c2ccncc2)n1	-2.5	-1.9	-4.8	-4.1	0.697	1.4	i
CCn1c2ccc(F)cc2c2nc3ccccc3nc21	-3.0	-0.1	-0.3	1.3	0.695	-43.5	i
O=C1CCCC2=C1C(c1ccc(O)cc1)c1c(ccc3ccccc13)N2 (stereo unspecified)	0.1	2.6	-12.3	3.6	0.689	-226.5	i
CC(C)CCNS(=O)(=O)c1cc2c3c(c1)CCN3C(=O)CC2	2.5	-2.5	22.2	-0.8	0.71	-0.6	i
CCCOc1ccc(C2C(C(=O)c3ccc(C)o3)=C(O)C(=O)N2Cc2ccco2)cc1OCC (stereo unspecified)	-2.6	-5.1	11.0	17.7	0.679	6.6	i
CCOC(=O)CC(=O)CSc1nc(C)cc(C)c1C#N	-1.5	1.1	2.1	-6.3	0.66	-32.3	/
O=C(NC1CCCCC1)C(c1ccc2ncccc2c1)N(Cc1ccccc1)C(=O)c1cccs1 (stereo unspecified)	3.5	-2.6	1.0	-13.3	0.704	2.0	/
CN(C(=O)Nc1ccccc1)C1CCCCC1	1.0	-2.8	-14.6	-5.8	0.686	7.7	i
